High-throughput results: PubChem BioAssay, National Center for Advancing Translational Sciences (NCATS)
VACV mCherry inh: qHTS for Stage-Specific Inhibitors of Vaccinia Orthopoxvirus: mCherry Reporter Primary qHTS | Vaccinia virus mCherry reporter infection, fluorescence; about a quarter of the inactives have no number | Potency, µM (highest dose often 36.5 µM), for inactives: at the highest dose activity change, negative = inhibition, actives largely listed as inhibitors | 0.63% of 310,000 active | AID 720579, 2013; active = well fitted inhibition curve with a large enough effect; inconclusive = small, poorly fitted or top-dose-only effect; inactive = no such curve, though single readings can be large or run the other way; tested in A549 cells; note: nearly all actives have a fitted effect of over 35% in size; inactives centre near -10
VACV Venus inh: qHTS for Stage-Specific Inhibitors of Vaccinia Orthopoxvirus: Venus Reporter Primary qHTS | Vaccinia virus Venus reporter expression, fluorescence | Potency, µM (top dose mostly 36.5 µM), inactives show at the highest dose activity change, negative = inhibition, hits mostly inhibitors | 0.46% of 330,000 active | AID 720580, 2013; active means well fitted inhibition curve with a large enough effect; inconclusive means small, poorly fitted or top-dose-only effect; inactive means no such curve, though single readings can be large or run the other way; tested in A549 cells; note: nearly all actives have a fitted effect of over 30% in size; inactives centre near -10
Numbers without * were called inactive; i = inactive; u = inconclusive; x = not tested or not shown; [ ] = another dose, or the depositor's remark. % is set by controls: 0 for no effect and ±100 for the full control effect; potency is the fitted concentration of half-maximal effect.

#	molecule	VACV mCherry inh	VACV Venus inh
1	CC(C)(Cc1cc(CC(C)(C)C(=O)O)cc(C(C)(C)C)c1)C(=O)O	i	-1.9%
2	CC(C)(NC(=O)N1CCOCC1)c1cccc(C(C)(C)NC(=O)N2CCOCC2)c1	i	-17.3%
3	C=CCNC(=O)c1c(Cl)cnn1-c1ccc(C)cc1	-10.5%	-13.1%
4	COc1ccc2c(c1)N(C)/C(=C1/SC(=NCc3ccccc3)N(c3ccccc3)C1=O)S2	x	-3.6%
5	CCOC(=O)C1CCN(C(=O)CN(C)S(=O)(=O)c2ccc3c(c2)c(=O)n(C)c(=O)n3C)CC1	-1.6%	-5.9%
6	COc1ccc(/C=N/Nc2nnc(Cc3ccccc3)c(=O)[nH]2)cc1OC	-26.3%	3.2%
7	COc1ccc(C(CC(=O)N2CCN(c3ccccc3)CC2)c2c(O)cc(OC)cc2OC)cc1 (stereo not given)	-14.7%	-22.0%
8	NS(=O)(=O)c1ccc(CCNC(=O)CSc2ccc([N+](=O)[O-])cc2)cc1	-3.7%	-15.6%
9	COc1ccc2cc3cc(C(=O)NCCCN4CCc5ccccc5C4)sc3nc2c1	-23.6%	-13.7%
10	O=C(CBr)N1CCc2ccccc2C(c2ccccc2)C1 (stereo not given)	i[7.34 µM]	3.8%[7.34 µM]
11	CCCC(C(=O)NNC(=O)c1cc(C)oc1C)c1ccccc1 (stereo not given)	-12.7%	-9.2%
12	CC1(C)CC(=O)c2cc(C(=O)NCc3ccco3)c(=O)n(-c3ccc(Cl)cc3)c2C1	i	-13.9%
13	Cc1cc(=O)[nH]c(SCn2nnc3ccccc3c2=O)n1	i	-6.1%
14	COc1ccc(-c2nnc(SCC(=O)N3CCCC3)o2)cc1OC	x	-10.7%
15	Cc1ccc(NC(=O)CCNS(=O)(=O)c2ccccc2F)cc1S(=O)(=O)N1CCOCC1	-27.0%	-16.4%
16	Cc1cc2ccccc2c(=O)n1CC(=O)NCC(=O)N1CCCC1	x	-25.1%
17	Cc1ccc(C)c(N2CCN(C(=O)CCS(=O)(=O)c3cc(Br)cc4c3N(C(=O)C3CC3)CC4)CC2)c1	-11.6%	-9.8%
18	CCc1ccc(S(=O)(=O)c2cn(Cc3ccccc3)c3cc(F)c(F)cc3c2=O)cc1	-12.2%	-17.3%
19	O=C(CSc1nc2ccccc2s1)NC1CCS(=O)(=O)C1 (stereo not given)	-3.6%	-11.6%
20	O=P(CCO)(c1ccccc1)c1ccccc1	-5.7%	-10.4%
21	CCc1cccc(NC(=O)CSc2ncc3c(n2)-c2ccccc2N(CC)S3(=O)=O)c1	-6.4%	-15.1%
22	O=C1CCCN1CCCNC(=S)Nc1ccc(Cl)cc1Cl	i	4.4%
23	CC1(C2CCN(Cc3c[nH]c4ccccc34)CC2)NC(=O)N(CCN2CCOCC2)C1=O (stereo not given)	-11.7%	-1.3%
24	Nc1ncnc2c1ncn2[C@@H]1O[C@H](CNCc2ccc(OCC(=O)Nc3nccs3)cc2)[C@@H](O)[C@H]1O	i	-6.6%
25	CCS(=O)(=O)N1CCC(C(=O)N2CCOCC2)CC1	i	-14.0%
26	COc1ccc2c3n(nc2c1)CCN=C3c1ccc(C)cc1	-26.9%	u
27	Oc1ccc(C=Nc2cccc3ncccc23)c(O)c1	-18.9%	-10.5%
28	CC(C)CC1NC(=O)N(CCCCN2C(=O)c3ccccc3C2=O)C1=O (stereo not given)	-7.2%	1.5%
29	CCOC(=O)c1c(C)[nH]c(C)c1S(=O)(=O)N1CCC(C(=O)NCc2ccc(F)cc2)CC1	-10.9%	-19.8%
30	C[C@](N)(CCP(=O)(O)O)C(=O)O	-1.7%	-10.1%
31	Cc1c(Cl)cccc1NC(=O)CSc1nc(=O)n(Cc2ccncc2)c2c1CCC2	-29.5%	-15.5%
32	Cc1ccc(N(C(=O)CNC(=O)c2ccco2)C(C(=O)NC2CCCC2)c2cccnc2)cc1 (stereo not given)	-9.2%	-5.0%
33	C[C@H](CO)N1C[C@H](C)[C@H](CN(C)Cc2cccc(F)c2)Oc2ncc(Br)cc2C1=O	-11.0%	-23.3%
34	O=C(NC1CCCCCC1)c1cccc(N2CCCC2=O)c1	-24.1%	-22.2%
35	O=C(OCc1nnc(-c2ccccc2)o1)C1CCN(S(=O)(=O)c2cccs2)CC1	-6.3%	-3.7%
36	Cc1ccccc1C(=O)Nc1ccnn1C1CCN(C2CCSCC2)CC1	-13.2%	-0.7%
37	CC1=C(C(=O)OCc2ccccc2)C(c2cccc([N+](=O)[O-])c2)NC(=O)N1CCCCCC(=O)O (stereo not given)	-13.0%	-3.2%
38	O=C(c1ccco1)N1CCN=C1SCc1c(F)cccc1Cl	-14.7%	-15.7%
39	CC(C)C[C@H](NC(=O)c1nc[nH]c1C(=O)N1CCN(C(=O)OC(C)(C)C)CC1)C(=O)OC(C)(C)C	u	-8.7%
40	N#CN(Cc1ccccc1)Cc1ccccc1	-20.9%	-14.0%
41	COc1ccc(/C=C(\NC(=O)c2ccc(OCC(C)C)cc2)C(=O)OCc2ccco2)cc1	-7.2%	u
42	CC(C)CNC(=O)C1(C)CCCN1Cc1ccc(OC(F)(F)F)cc1 (stereo not given)	i	-20.9%
43	Cn1ncc2cc(NC(N)=S)ccc21	-1.8%	-1.9%
44	O=c1[nH]c2ccccc2n1Cc1ccc(F)cc1	-25.5%	-7.1%
45	Cc1ccc(CNS(=O)(=O)c2ccc(C(=O)N(C)C)s2)cc1	-7.8%	-8.6%
46	O=C(CSc1nnc(NCc2ccccc2)s1)c1ccco1	x	-18.3%
47	Cc1ccc2cc(CCNC(=O)CC(C)C)c(=O)[nH]c2c1	i	-6.5%
48	CCN(CC)S(=O)(=O)c1ccc(C)c(NC(=O)COC(=O)CCC(=O)c2cccs2)c1	-0.6%	-6.5%
49	COc1ccc(OC)c(/C=C2/Sc3ccccc3C2=O)c1	-5.7%	3.7%
50	C=CCn1c(COc2ccccc2)nnc1SCC(=O)Nc1ccc(S(N)(=O)=O)cc1	x	-11.3%
51	COc1ccc(-c2nnc(SCC(=O)Nc3c(Cl)cc(Cl)cc3C(=O)O)o2)cc1	-0.4%	3.7%
52	COc1ccc2nc(SCC(=O)N3CCCCCC3)c(C#N)cc2c1	-3.9%	-4.3%
53	CC(C)CC(=O)Nc1ccccc1-c1nnn(CC(=O)N2CCc3ccccc3C2)n1	-15.9%	-14.2%
54	CCCCN1C[C@H](c2ccc(OC)cc2)[C@@H](CC(=O)Nc2ccc(OC)cc2)C1=O	-15.1%	-16.4%
55	CCC[C@@H](OS(N)(=O)=O)[C@@H](Cc1ccccc1)C(=O)OCC	i	-16.4%
56	CCN(CCNC(=O)c1ccc2nc(-c3ccccc3NC(C)=O)c(=O)[nH]c2c1)c1ccccc1	i	-19.0%
57	Cc1ccc(C)c(NC(=O)C(OC(=O)c2ccc(CO)cc2)c2ccccc2)c1 (stereo not given)	-20.8%	-11.3%
58	O=C(/C=C/c1ccccc1)NCC(=O)N/N=C/c1ccccc1[N+](=O)[O-]	u	6.9%
59	CCOC(=O)c1ccc(N2C(=O)c3n[nH]c(C)c3C2c2cccnc2)cc1 (stereo not given)	-3.3%	2.4%
60	O=C(O)CCc1ccc(-c2cccs2)n1NC(=O)c1cccs1	-5.7%	0.9%

Compound profiles, from the list above:
Results for O=C(CSc1nnc(NCc2ccccc2)s1)c1ccco1 : VACV mCherry inh: x; VACV Venus inh: -18.3%
Results for CCC[C@@H](OS(N)(=O)=O)[C@@H](Cc1ccccc1)C(=O)OCC : VACV mCherry inh: i; VACV Venus inh: -16.4%

(continued)
#	molecule	VACV mCherry inh	VACV Venus inh
61	COc1ccc(N(Cc2cc3cc(OC)ccc3[nH]c2=O)C(=O)c2cccnc2)cc1	x	-8.1%
62	O=C(CN1CCN(c2ccccn2)CC1)Nc1ccc(Cl)c(C(F)(F)F)c1	x	-17.6%
63	Cc1ccc(C2CC(=O)n3nc(-c4cccc(C)c4)nc3S2)cc1 (stereo not given)	-10.8%	1.7%
64	O=C(N=Nc1c(O)[nH]c2ccc(Br)cc12)c1ccco1	-15.8%	-27.8%
65	Cc1ccn2cc(CC(=O)O)nc2c1	-6.3%	-1.2%
66	CC(Nc1nc(N2CCNCC2)nc2ccccc12)c1ccccc1 (stereo not given)	-22.9%	u
67	CC(=O)c1cccc(NC(=O)C(OC(=O)c2ccccc2NS(=O)(=O)c2cccs2)c2ccccc2)c1 (stereo not given)	i	-13.1%
68	CN(C)S(=O)(=O)N1CCCC(C(=O)c2ccc(-c3ccccc3)cc2)C1 (stereo not given)	i	-7.9%
69	Cc1cc2nnc(SCC(=O)N3CCN(c4ccccc4)CC3)n2c(N)n1	-9.6%	-2.8%
70	COc1cccc(C(C(=O)NC2CCCCC2)N(C(=O)c2csnn2)C2CC2)c1 (stereo not given)	-10.2%	-6.1%
71	CCOc1cc(C2C(C(=O)c3ccc(C)cc3)=C(C(=O)OC)Nc3nnnn32)ccc1O (stereo not given)	x	-8.1%
72	CCCN(Cc1ccccc1)C(=S)Nc1ccc(SC(F)F)cc1	-15.5%	-2.3%
73	CN1C(=O)NC2C1N(S(C)(=O)=O)CCN2S(C)(=O)=O (stereo not given)	u	-10.0%
74	Fc1ccc(CNCC2CCCO2)cc1 (stereo not given)	-12.9%	-3.9%
75	COc1ccc(S(=O)(=O)N(C)C2(C)CCS(=O)(=O)C2)cc1OC (stereo not given)	-13.1%	5.9%
76	O=C(C1CCCC1)N1CCCC(Nc2ccccc2)C1 (stereo not given)	-28.1%	-4.4%
77	COCc1cc(C)n(CC(=O)Nc2ccc(N3CCOCC3)c(Cl)c2)c(=O)c1C#N	-5.9%	-3.9%
78	C=CCn1c(=O)c2ccccc2n2c(SCC(N)=O)nnc12	x	-15.9%
79	COc1ccc(-c2nnc(SCC(=O)N3c4ccccc4Sc4ccccc43)o2)cc1	-11.2%	-1.7%
80	CC(=O)Nc1cccc(NC(=O)C(=O)NCC(c2ccco2)N2CCc3ccccc3C2)c1 (stereo not given)	i	-9.9%
81	COC(=O)/C=C/c1ccccc1S(=O)(=O)NC(C)C	i	-7.7%
82	O=C(NCCN1CCC(n2c(=O)[nH]c3ccccc32)CC1)c1ccc(Cl)cc1	5.5%	-1.8%
83	Cc1ccc(NC(=S)N(CCCN2CCOCC2)Cc2ccco2)cc1C	-4.5%	-18.5%
84	COc1ccc([N+](=O)[O-])cc1NC(=O)COC(=O)C1CC1	i	0.1%

The last four records of the section above open the next one.
#	molecule	VACV mCherry inh	VACV Venus inh
81	COC(=O)/C=C/c1ccccc1S(=O)(=O)NC(C)C	i	-7.7%
82	O=C(NCCN1CCC(n2c(=O)[nH]c3ccccc32)CC1)c1ccc(Cl)cc1	5.5%	-1.8%
83	Cc1ccc(NC(=S)N(CCCN2CCOCC2)Cc2ccco2)cc1C	-4.5%	-18.5%
84	COc1ccc([N+](=O)[O-])cc1NC(=O)COC(=O)C1CC1	i	0.1%
85	CC(C)(C)N1CC(c2nc3ccccc3n2Cc2ccccc2)CC1=O (stereo not given)	i	-13.7%
86	COc1ccc(-c2cc(C(=O)Nc3cccnc3)c3ccccc3n2)cc1OC	-23.8%	-15.0%
87	COCCNC(=O)CC(NS(=O)(=O)c1ccc(NC(C)=O)cc1)C(C)C (stereo not given)	x	-4.2%
88	CN1OC[C@@H]2CN[C@H](c3ccc(-c4cc5ccccc5o4)cc3)C[C@@H]21	u	-17.9%
89	CC(=O)c1cccc(OCC(=O)NC2CCCCCC2)c1	i	-10.6%
90	Cc1ccc(C)c(C(=O)NCc2ccncc2)c1	-15.6%	-3.7%
91	Cc1ncc(CN2CCN(Cc3ccccc3)C(CCO)C2)s1 (stereo not given)	i	-5.0%
92	COc1ccc(C2CC(c3ccncc3)=NN2c2ccc(S(N)(=O)=O)cc2)cc1 (stereo not given)	-1.9%	-8.2%
93	COc1cc(NC(=O)c2ccccc2Cl)ccc1NC(=O)c1cccs1	-12.3%	-9.1%
94	Cn1c(N)c(C(=O)c2ccc(Oc3ccccc3)cc2)c(=O)n(C)c1=O	i	-9.6%
95	CCN(CC)C(=O)c1scc2c1OCCO2	-12.4%	5.3%
96	Cc1oncc1C(=S)Nc1ccccc1	i	-16.6%
97	Cc1nc(NC(=O)C2CC2)sc1C(=O)N1CCCCC1	i	-9.2%
98	CCCC(=O)Nc1ccc(C(=O)NN=C(C2CC2)C2CC2)cc1	-9.7%	-3.3%
99	Clc1ccc(CCNc2nc3ccccc3c3nc(-c4ccccc4)nn23)cc1	-12.8%	6.4%
100	Cc1cccc(NC(=O)Nc2nnc([C@@H]3C[C@H](O)[C@@H](CO)O3)s2)c1	-5.5%	9.8%
101	COC(=O)c1ccc(CSc2nnnn2-c2ccc(C)cc2C)o1	-13.9%	-13.8%
102	Cc1cccn2c(=O)c(/C=C(\C#N)C(=O)NC3CCS(=O)(=O)C3)c(N3CCC(C(N)=O)CC3)nc12 (stereo not given)	-4.3%	2.1%
103	COc1ccc(NS(=O)(=O)c2cccc(C(=O)N/N=C/c3ccc(O)cc3)c2)cc1	6.0%	0.8%
